N370S GC mod = inhibitors or activators of N370S glucocerebrosidase for Gaucher disease | 330,000 tested, 0.092% active | P04062 | N370S GC spleen homogenate, 4MU-glucoside fluorescence | Potency, µM (series often up to 59.4 µM), inactives show top-dose activity change, negative = inhibition, most hits filed as inhibitors;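 note: 0% = full enzyme activity and -100% = no enzyme basal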
FEN1 inhibitor = inhibitors of human flap endonuclease 1; Potency, µM (titrated, usually from 114 µM), without a hit: at the top dose activity change, negative = inhibition, usual class: inhibitors; P39748; 390,000 tested, 0.35% active; Recombinant FEN1 flap cleavage, fluorescence, 15 min; AID 588795; note: nearly all actives have a fitted effect of over 65% in size
Target sequence (P39748 whole entry, looked up): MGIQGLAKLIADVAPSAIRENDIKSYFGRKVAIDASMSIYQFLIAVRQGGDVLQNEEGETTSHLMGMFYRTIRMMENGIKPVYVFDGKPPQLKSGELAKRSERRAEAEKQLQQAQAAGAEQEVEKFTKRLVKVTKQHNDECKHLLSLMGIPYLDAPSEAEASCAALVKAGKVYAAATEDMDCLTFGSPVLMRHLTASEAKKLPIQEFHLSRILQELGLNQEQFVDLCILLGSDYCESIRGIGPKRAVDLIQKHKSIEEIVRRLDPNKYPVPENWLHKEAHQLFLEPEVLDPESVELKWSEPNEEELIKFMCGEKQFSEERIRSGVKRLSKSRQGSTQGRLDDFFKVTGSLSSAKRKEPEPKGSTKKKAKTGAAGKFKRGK
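Reaction started by adding substrate (50 nM final) to 10 nM enzyme after 15 min room-temperature compound preincubation. Reads at 0 and 15 min, with data normalized and fitted to a four-parameter Hill equation.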
The depositor's hits bear a star; u = inconclusive; x = no result given; & = joins results of further samples; [ ] = dose if it differs, or a comment. Calls come from the whole dose curve; as a rule, active = well fitted curve in the direction sought with a large enough effect; inconclusive = small, poorly fitted or top-dose-only effect, or another doubt; inactive = no such curve, though single readings can be large; an effect the other way counts as inactive or inconclusive. Unless noted, % is set by controls: 0 for no effect and ±100 for the full control effect; potency is the fitted concentration of half-maximal effect.

Structure	N370S GC mod	FEN1 inhibitor
O=C(NC(=S)Nc1ccccc1)c1cccs1	3%	-17%
Cc1cc(C)nc(NS(=O)(=O)c2ccc(NC(=O)CSc3nc(-c4ccccc4)c(C#N)c(=O)[nH]3)cc2)n1	7%	-3%
CC(C)(C)OC(=O)N1CCN(C(=O)Cn2cc(CCO)nn2)CC1	12%	-10%
CCC1=C2CC[C@H]3C(=O)N(c4ccccc4)C(=O)[C@H]3[C@H]2[C@@]2(Cc3ccccc3)C(=NCc3ccccc3)OC(=O)N2C1=O	-10%	x
CSc1ccc(-c2nc(CN(C)C3CCOC3)c(C)o2)cc1 (stereo not given)	4%	-2%
CCN1C(=O)N(CC)c2cccc3cccc1c23	4%	3%
CCC(=O)Nc1ccc2c(c1)C(=O)N(C)C2=O	5%	-4%
Cn1nccc1C(=O)OCC(=O)Nc1nc(-c2ccccc2)cs1	7%	14%
Clc1ccc(CN2CCN(/N=C/c3ccco3)CC2)cc1	14%	1%
CN(C)c1nc(NCc2ccccc2)nc(Oc2ccc(=O)[nH]n2)n1	-2%	2%
Cc1ccccc1Cn1c(CN2CCC(C(=O)NCCc3ccccc3)CC2)cc2ccccc21	x	-2%
CC(=O)c1ccc(S(=O)(=O)NC2CCSc3ccccc32)cc1 (stereo not given)	-4%	4%
O=C(NCc1ccc2c(c1)OCO2)C1CCC(CNS(=O)(=O)c2ccc(Cl)cc2)CC1 (stereo not given)	-2%	-2%
Cc1ccc(NC(=O)c2cc(N3C(=O)C4CC=CCC4C3=O)ccc2N2CCOCC2)cc1Cl (stereo not given)	-10%	-2%
CC1=C(C(=O)N(C)C)C(c2ccc(N3CCOCC3)cc2)NC(=O)N1 (stereo not given)	1%	21%
Cc1cc(NC(=O)CN2C(=O)NC(Cc3ccccc3)C2=O)no1 (stereo not given)	3%	-8%
CCOc1ccc(CC(=O)Nc2ccc(-c3ccc4nnc(C)n4n3)cc2)cc1	3%	u
Cc1cc(C)c2c(=O)[nH]c(SCC(=O)c3ccc(C)c(C)c3)nc2n1	3%	3%
Cc1ccc(OC(=O)CCS(=O)(=O)c2ccc(C)cc2)cc1	4%	-3%
NC(N)=Nc1nc2ccc(Br)cc2c(=O)[nH]1	7%	3%
O=C/C=C/c1ccc(O)cc1	-10%	x
CCOC(=O)c1ccc(NC(=O)c2ncn(-c3ccccc3)n2)cc1	x	-3%
O=C(COC(=O)c1cc([N+](=O)[O-])ccc1Cl)NCCc1ccccc1	x	-1%
c1cc2c3c(cccc3c1)C(N1CCCCC1)=N2	-16%	-1%
CC(NCCO)C(=O)C12CC3CC(CC(C3)C1)C2 (stereo not given)	-3%	-1%
N#C/C(=C\c1ccccc1)C(=O)Nc1sc2c(c1C(N)=O)CCC2	x	10%
Cc1ccc(S(=O)(=O)c2c(N)n(NC(=O)c3ccccc3C)c3nc4ccccc4nc23)cc1	-2%	10%
Cc1c(C=O)c(C=O)c(C)n1Cc1ccccc1	-3%	4%
CC1(C)S[C@@H]2[C@H](NC(=O)[C@@H](N)c3ccc(O)cc3)C(=O)N2[C@H]1C(=O)O	-3%[21.6 µM]	x
CN(C)c1ccc(/C=N/NC(=O)CCC(=O)NCc2ccccc2)cc1	7%	-1%
O=C(c1ccc2oc(CCCc3ccccc3)nc2c1)N1CCCC(CCCO)C1 (stereo not given)	-18%	-8%
COc1ccc(C(=O)NCCN2C(=O)S/C(=C\c3cccnc3)C2=O)cc1[N+](=O)[O-]	-3%	-1%
O=C(CCN1C(=O)c2ccccc2C1=O)Nc1ccc(-c2cn3ccsc3n2)cc1	2%	-6%
O=C(O)C1CC=CCC1C(=O)NCCc1ccccc1 (stereo not given)	4%	-7%
O=C(CN1C(=O)NC2(CCCC2)C1=O)Nc1ccc(F)cc1	7%	-5%
CC(Cc1ccccc1)NC(=O)CSc1nc2nc3c(cc2c(=O)n1-c1ccccc1)COC(C)(C)C3 (stereo not given)	4%	-2%
COc1cccc2cc(C(C)N(CCCN3CCOCC3)C(=S)Nc3c(C)cccc3C)oc12 (stereo not given)	-27%	-14%
COC(=O)C(CSCc1ccccc1)NC(=O)CSc1nc(N)cc(=O)[nH]1 (stereo not given)	3%	8%
Cc1ccc(CN(C)C(=O)c2ccc(S(=O)(=O)N(C)c3ccccc3)cc2)o1	-2%	-13%
O=C(NNC(=O)c1ccccc1-n1cccc1)c1ccc(F)cc1	-7%	-10%
NCc1ccc(S(N)(=O)=O)cc1	7%	5%&-4%
O=C(NC1CCN(C(=O)Nc2cccc(Cl)c2)CC1)c1ccco1	-1%	-3%
O=C(CCNc1n[nH]c(=O)[nH]c1=O)N1CCCCC1	0%	2%
CCOC(=O)c1cc2c(=O)n3ccccc3nc2n(Cc2ccco2)c1=NC(=O)c1cccc(F)c1	x	-8%
COc1ccc(C)cc1S(=O)(=O)N1c2ccc(C)cc2C2CN(C)CCC21 (stereo not given)	-15%	3%
C=CCN(CC=C)C(=O)Nc1cc(OC)ccc1OC	3%	-12%
C=C1N(c2cccc(Cl)c2)C(=O)OC1(C)C	-4%	13%
O=C(OCc1ccccc1)N1CCOCCOCCN(C(=O)OCc2ccccc2)CCOCCOCC1	-10%	-2%
COc1ccc(OC)c(C(=O)COC(=O)CN2C(=O)NC3(CCCCC3C)C2=O)c1 (stereo not given)	1%	-8%
O=C(c1ccccc1F)N1CCN(Cc2ccccc2F)CC1	8%	5%
Cc1ccc(-c2nnn(CC(=O)N(CC(=O)NCC3CCCO3)c3ccccc3)n2)o1 (stereo not given)	-13%	3%
CSc1ccc(C(=O)NC2CCSc3ccccc32)cc1 (stereo not given)	-6%	4%
CCN(CC(=O)Nc1cc(Cl)ccc1C)C(=O)C1COc2ccccc2O1 (stereo not given)	x	8%
Cc1cc(C)c(N)c(C(=O)O)c1	-7%	-4%
O=C1NC2=C(C(=O)c3ccccc32)C(c2ccccc2)N1 (stereo not given)	u	14%
CCCc1nnc(NC(=O)NCCN2C(=O)C3C4C=CC(C4)C3C2=O)s1 (stereo not given)	3%	2%
CC(NC(=O)/C(C#N)=C/c1ccc(C(=O)O)cc1)c1ccccc1 (stereo not given)	12%	10%
O=C(Nc1ccccc1-c1nc2ccccc2s1)c1cccnc1	7%	-2%
N#CCCCSc1ncccc1-c1nc2ccccc2[nH]1	8%	4%
O=C(Nc1ccc(NC(=O)c2ccco2)cc1)c1ccc2c(c1)OCCO2	-16%	-3%

A different layout for part of the listing above.
> CC(NC(=O)/C(C#N)=C/c1ccc(C(=O)O)cc1)c1ccccc1 (stereo not given)
  N370S GC mod: 12%; FEN1 inhibitor: 10%

> O=C(Nc1ccccc1-c1nc2ccccc2s1)c1cccnc1
  N370S GC mod: 7%; FEN1 inhibitor: -2%

> N#CCCCSc1ncccc1-c1nc2ccccc2[nH]1
  N370S GC mod: 8%; FEN1 inhibitor: 4%

(list continues)
Structure	N370S GC mod	FEN1 inhibitor
O=c1[nH]cnc2sc3c(c12)CCCC3	8%	-12%
Cc1ccc(Sc2ccc(S(=O)(=O)Nc3ccc(C(=O)O)cc3)cc2)cc1C	x	8%
COc1ccc(NC(=O)C2CCCN(S(=O)(=O)c3cccnc3)C2)cc1OC (stereo not given)	-1%	-6%
COCCNCC(=O)Nc1ccc(OC(F)(F)F)cc1	5%	-9%
COc1ccccc1Nc1ncc2c(n1)CCN(Cc1cc(F)cc(F)c1)C2	x	4%
O=c1c(CN2CCN(c3cccc(Cl)c3)CC2)coc2c(Cl)cc(Cl)cc12	7%	-2%
COc1ccc(CN(C)C(=O)c2cnc(OC)cc2C(F)(F)F)c(OC)c1	1%	-15%
COCCNC(=O)C1(C(F)(F)F)CC(CCCO)CCCO1 (stereo not given)	-10%	-12%&11%
O=C(C[C@@H]1C/C=C\C[C@@H](Cc2ccc(F)cc2)C(=O)OC[C@H]2CCCN2C1=O)NCCO	x	2%
COCCN(C(=O)CCC(=O)Nc1cc(C)on1)C(C(=O)NC1CCCC1)c1ccccc1C (stereo not given)	5%	2%
Cc1ccc(NC(=S)NC(=O)c2ccc(-c3ccccc3)cc2)c(C)c1	6%	-6%
O=C(O)c1ccc(N/C(=N\S(=O)(=O)c2ccc(Cl)cc2)c2ccccc2)cc1	0%	12%
COc1ccc(S(=O)(=O)N2CCC(C(=O)N[C@H](C(=O)N3CCCC3)C(C)C)CC2)cc1	2%	21%
CCn1c(SCc2nc(-c3ccc(OC)c(OC)c3)no2)nnc1-c1cccs1	-17%	-19%
Cc1ccc(Nc2nnc(SCC(=O)Nc3cccc(S(=O)(=O)NC4=NCCCCC4)c3)s2)cc1	15%	-5%
CCOc1ccccc1N1CCN(C(=S)NCc2ccco2)CC1	3%	-4%
Nc1nc(Cl)nc2c1ncn2[C@@H]1O[C@H](CO)[C@@H](O)[C@H]1O	-17%&1%&-6%	u
Cc1cc(C(=O)Nc2ccc3c(c2)OCCO3)c2ccccc2n1	22%	0%
COc1ccc(S(=O)(=O)NCCSC(C)(C)C)cc1Cl	7%	-6%
COc1cc(C(=O)OCC(=O)Nc2c(C)n(C)n(-c3ccccc3)c2=O)c([N+](=O)[O-])cc1OC	x	7%
O=C(c1ccc2nc(Cc3ccccc3F)oc2c1)N1CC[C@H](O)C1	-8%	19%
COc1ccc(CNC(=O)C2CCN(S(=O)(=O)c3cc(OC)ccc3OC)CC2)cc1	2%	-9%
COCCNC(=O)c1onc(CSc2ccccc2)c1C(=O)O	14%	-6%
C[n+]1cc[nH]c1SCC(=O)c1ccc(Cl)cc1	1%	-1%
COc1cccc(OC)c1OCCCOc1cccc2cccnc12	-4%	-4%
CC(=O)Nc1ccc2nc(SCC(=O)O)sc2c1	9%[2.35 µM]	-9%
CCn1c(=O)c(-c2cc(=O)[nH][nH]2)c(O)c2ccccc21	u	1%
C[C@@H](C(=O)N1CCN(c2ccccc2)CC1)N1C(=O)C2CC=CCC2C1=O (stereo not given in full)	x	19%
CCOc1ccc(CCNC(=O)c2ccc(-c3nc(COc4ccc(C)cc4)c(C)o3)cc2)cc1	x	-10%
CCc1ccc2[nH]c(=O)c(CN(CCCN3CCOCC3)C(=O)Nc3ccc(Cl)cc3)cc2c1	-1%	-18%

Next part, overlapping the part above by 4 compounds.
Structure	N370S GC mod	FEN1 inhibitor
CCn1c(=O)c(-c2cc(=O)[nH][nH]2)c(O)c2ccccc21	u	1%
C[C@@H](C(=O)N1CCN(c2ccccc2)CC1)N1C(=O)C2CC=CCC2C1=O (stereo not given in full)	x	19%
CCOc1ccc(CCNC(=O)c2ccc(-c3nc(COc4ccc(C)cc4)c(C)o3)cc2)cc1	x	-10%
CCc1ccc2[nH]c(=O)c(CN(CCCN3CCOCC3)C(=O)Nc3ccc(Cl)cc3)cc2c1	-1%	-18%
NNC(=O)c1nn(-c2ccc(Cl)cc2)ccc1=O	-25%	0%
CCOc1ccc(Cc2c(Cl)nc(N)nc2Cl)cc1	22%	7%
NC(=O)Nc1ccc(C(=O)OCC(=O)Nc2ccc([N+](=O)[O-])cc2C(F)(F)F)cc1	6%	-10%
COc1ccc(C(=O)NNC(=O)c2cc(C)[nH]n2)cc1	3%	-9%
CCC(C)NC(=O)c1cc(Sc2nnc(C)s2)nc2ccccc12 (stereo not given)	0%	x
Cc1ccc(NC(NC(=O)OCCn2c([N+](=O)[O-])cnc2C)C(Cl)(Cl)Cl)cc1 (stereo not given)	0%	x
CC(=O)c1cccc(NC(=O)CCCSc2nc(-c3ccco3)cc(C(F)(F)F)n2)c1	x	-5%
Cc1ccc(Cl)cc1NC(=O)Cn1c(=O)n(C(C)C)c(=O)c2oc3ccccc3c21	x	-9%
N/C(CS(=O)(=O)c1ccc(F)cc1)=N\O	-2%	43%[activator]
CCOc1ccc(CCNC(=O)CN2C(=O)NC3(CCCCCC3)C2=O)cc1OCC	x	-13%
CC(C)(C)c1ccc(C(=O)NCCC(=O)NNC(=O)COc2ccc(F)cc2)cc1	x	-7%
O=C(CNC(=S)N(Cc1ccc(F)cc1)C1CCCCC1)NC1CC1	-5%	2%
CC(=O)NC(CCS(C)(=O)=O)C(=O)N1CCc2ccccc21 (stereo not given)	-2%	-19%
Cc1nn(CC(=O)NCCCc2ccccc2)c(=O)c2cc3occc3n12	-12%	-2%
COc1ccc(CNC(=O)CC(c2ccc(OC)c(OC)c2)N2Cc3ccccc3C2=O)cc1 (stereo not given)	x	12%
CC1CN(C(=O)c2ccc([N+](=O)[O-])s2)CC(C)O1 (stereo not given)	x	-13%
Cc1ccc(SCCNC(=O)/C=C/c2cccc([N+](=O)[O-])c2)cc1	4%	-15%
COc1ccc(C)cc1NC(=O)C(CCSC)NS(=O)(=O)c1ccc2c(c1)oc(=O)n2C (stereo not given)	x	6%
CCCC(C)C(=O)Nc1cccc(NC(C)=O)c1 (stereo not given)	2%	9%
O=C(CCCCn1c(=O)c2ccccc2n(Cc2ccccc2)c1=O)NC1CCN(Cc2ccccc2)CC1	-12%	11%
O=C(CSc1nnc(-c2ccccc2Br)n1-c1ccccc1)c1ccc(F)cc1	x	-15%

Some of the compounds tested; most or all hits stand in other tables.
